TRPV1 PAM: human TRPV1 potentiation; Q8NER1; TRPV1-expressing cells, Fluo-8 calcium influx, capsaicin EC20 potentiation; host cell line not named in the record; control for the full effect not named in the record; potentiation, % at 8.33 µM; 320,000 tested, 0.02% active; active means potentiation above 80%; inconclusive means 30% to 80%; inactive means below 30%; note: 0% is about no effect
Target sequence (Q8NER1 whole entry, looked up): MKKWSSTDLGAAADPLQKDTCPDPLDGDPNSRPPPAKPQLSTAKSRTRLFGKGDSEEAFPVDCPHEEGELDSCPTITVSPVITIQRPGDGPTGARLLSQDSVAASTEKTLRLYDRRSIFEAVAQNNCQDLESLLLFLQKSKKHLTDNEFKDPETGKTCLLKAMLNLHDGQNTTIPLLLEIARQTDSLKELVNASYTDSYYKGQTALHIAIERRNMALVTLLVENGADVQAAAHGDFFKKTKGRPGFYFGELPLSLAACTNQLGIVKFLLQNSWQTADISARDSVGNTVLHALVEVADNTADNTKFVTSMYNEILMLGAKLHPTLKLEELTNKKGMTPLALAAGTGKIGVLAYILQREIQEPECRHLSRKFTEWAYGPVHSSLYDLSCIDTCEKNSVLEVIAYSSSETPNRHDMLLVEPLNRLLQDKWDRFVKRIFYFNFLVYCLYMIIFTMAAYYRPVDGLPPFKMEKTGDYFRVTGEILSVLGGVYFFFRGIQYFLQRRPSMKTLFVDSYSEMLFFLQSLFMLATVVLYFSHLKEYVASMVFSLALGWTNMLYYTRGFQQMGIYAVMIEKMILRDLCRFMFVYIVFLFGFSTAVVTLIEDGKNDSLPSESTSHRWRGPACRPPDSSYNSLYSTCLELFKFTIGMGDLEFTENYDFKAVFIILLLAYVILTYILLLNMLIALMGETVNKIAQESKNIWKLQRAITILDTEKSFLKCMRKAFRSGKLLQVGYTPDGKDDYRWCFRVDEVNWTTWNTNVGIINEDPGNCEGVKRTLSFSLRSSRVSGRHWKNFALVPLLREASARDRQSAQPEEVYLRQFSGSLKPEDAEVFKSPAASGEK
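Cells expressing TRPV1 were dye-loaded with Fluo-8 and read kinetically: 10 s baseline, 3 min after compound (agonist portion), then 2 min after EC20 capsaicin (allosteric enhancer portion). Calcium-bound dye fluorescence at 480/520 nm.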
Sfp PPTase inh: blocks B. subtilis Sfp PPTase activity; Potency, µM, without a hit: max response, negative = inhibition, actives largely listed as inhibitors; Biochemical Sfp PPTase activity, qHTS; 310,000 tested, 3.5% active; active = well fitted inhibition curve with a large enough effect; inconclusive = small, poorly fitted or top-dose-only effect, or another doubt; inactive = no such curve, though single readings can be large or run the other way;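 note: the enzyme is Sfp with the accession as filed and its product quenches rhodamine fluorescence; potency is the fitted concentration of half-maximal effect; 0% = enzyme reaction without inhibitor and -100% = no enzyme wells; top concentration of the series not given in the record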
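Sfp 15 nM + cpd, 15 min RT; start w/ rhodamine-CoA 5 uM, BHQ-2-YbbR 12.5 uM (final); 50 mM Hepes pH 7.6, 10 mM MgCl2, 0.01% NP-40, 0.01% BSA; read 525/598 nm at 0 and 30 min.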
CtBP-E1A blk: inhibitors of CtBP/E1A interaction. AlphaScreen GST-E1A/His-CtBP binding, 1536-well; hits give low values; control for the full effect not named in the record. activity change, % (test concentration not listed). 340,000 tested, 0.49% active. AID 651724; in the data active means activity change below about -65%; inconclusive means about -30% to -65%; inactive means above about -30%; note: % is set by controls: 0 for no effect and ±100 for the full control effect; compound concentration not given in the record
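In 5 uL wells, 23 nL compound meets equimolar GST-E1A and His-CtBP (5X stock 125 nM each) for 2 h, 37 °C. Beads (5X, 50 ug/mL) then 1 h, 37 °C, dark.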
ClpP mod: qHTS Assay for Activators of ClpP. 340,000 tested, 1.9% active. Potency, µM (highest dose often 57.5 µM), for inactives: top-dose activity change, negative = active. purified B. subtilis ClpP, FRET peptide cleavage, 20 min; active = well fitted falling curve with a large enough effect; inconclusive = small, poorly fitted or top-dose-only effect; inactive = no such curve, though single readings can be large or run the other way; note: potency is the fitted concentration of half-maximal effect; the source files actives as falling curves though it sought activators and does not explain the sign; nearly all actives have a fitted effect of over 65% in size; many hits overshoot -100%
Target sequence (P80244 whole entry, looked up): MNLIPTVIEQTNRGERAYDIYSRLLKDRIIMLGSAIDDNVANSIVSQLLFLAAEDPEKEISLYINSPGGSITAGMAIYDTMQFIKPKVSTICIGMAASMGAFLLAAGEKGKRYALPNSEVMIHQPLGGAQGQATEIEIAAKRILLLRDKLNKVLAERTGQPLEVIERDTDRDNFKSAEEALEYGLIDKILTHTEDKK
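FRET quenching reversal measured ClpP activation: 10 microg/mL B. subtilis ClpP at pH 8 with the FRET-FV decapeptide, read at 430 nm after 320 nm excitation. The 20-min minus 0-min signal was scaled between DMSO/no-enzyme wells and ADEP (5.8 microM final).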
gsp ag: activates gsp, the McCune-Albright syndrome mutation. gsp mutant cells, cAMP HTRF, 30 min; control for the full effect not named in the record. Potency, µM (doses to about 76.9 µM), without a hit: top-dose activation (cAMP increase), most hits filed as activators. 340,000 tested, 0.13% active. AID 624287; active = well fitted activation curve with a large enough effect; inconclusive = small, poorly fitted or top-dose-only effect, or another doubt; inactive = no such curve, though single readings can be large or run the other way; cell line not stated here;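 note: phosphodiesterase inhibitor Ro 20-1724 added with compounds to block cAMP breakdown; potency is the fitted concentration of half-maximal effect; nearly all actives have a fitted effect of over 60% in size; about a fifth of the inactives were tested at one dose only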
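Cells in DMEM/10% FBS with G418 were pretreated with compounds in DMSO plus […] (300 uM stock) for 30 min at 37C. cAMP was measured by HTRF (cAMP-d2 plus anti-cAMP antibody-K) after 30 min at room temperature.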
gsp antag: gsp mutant antagonism. Potency, µM (series often up to 76.9 µM), for inactives: top-dose activity change, negative = inhibition, most hits filed as inhibitors. gsp-mutant cells, cAMP HTRF, 30 min; control for the full effect not named in the record. AID 624288. 340,000 tested, 0.4% active; active = falling curve of any shape with a large fitted effect; inconclusive = falling curve, mostly with a smaller effect; inactive = flat or rising curve; cell line not stated here;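 note: intracellular cAMP measured with PDE inhibitor Ro 20-1724 present during compound exposure; potency is the fitted concentration of half-maximal effect; % is set by controls: 0 for no effect and ±100 for the full control effect; nearly all actives have a fitted effect of over 65% in size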
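G418-selected cells were plated in DMEM/10% FBS for 16-24 h at 37C, then treated with compounds plus the PDE inhibitor […] (300 uM solution added) for 30 min at 37C. Intracellular cAMP was measured by HTRF after 30 min lysis at room temperature.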
Menin-MLL FL inh: inhibitors of human menin-MLL interaction, wild-type MLL peptide | 290,000 tested, under 10 active | FP activity change, % at 61.4 µM | Fluorescence polarization, fluorescein-MLL peptide displacement from menin | AID 1766; inconclusive = falling polarisation curve, or a change in total fluorescence; inactive = total fluorescence flat and polarisation flat or rising; no compound was filed as active; the % refers to the polarisation; negative = inhibition;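 note: % of control where 0% means no effect; inhibitors lower the polarisation; unlabelled MLL peptide was the positive control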
* marks the source's active call; other numbers are inactive results; [ ] = remark or other dose.

How did COc1cccc(-c2nnc(-c3ccc(C(F)(F)F)cc3)o2)c1 do in these assays?
TRPV1 PAM: -11; Sfp PPTase inh: -1%; CtBP-E1A blk: 16; ClpP mod: -26%; gsp ag: inconclusive; gsp antag: 9%; Menin-MLL FL inh: -1.6

What do the screens show for `CCOC(=O)c1ccc(Nc2ccc(-c3ccc(OC)c(OC)c3)nn2)cc1`?
TRPV1 PAM: -6; Sfp PPTase inh: 20%; CtBP-E1A blk: -1; ClpP mod: -2.4%; gsp ag: 11%; gsp antag: -6%; Menin-MLL FL inh: -1.3

Results for O=C(OCc1ccccc1)N1CCC2CC1c1cc(N3CCN(S(=O)(=O)c4cccc(C(F)(F)F)c4)CC3)ccc12 (centres undefined) ?
CtBP-E1A blk: -13; ClpP mod: -1.8%; gsp ag: -85%[inhibitor]

What do the screens show for `Cc1ccc(C)c(N=C2CCCN2Cc2ccccc2)c1C#N`?
TRPV1 PAM: -3; Sfp PPTase inh: 10%; CtBP-E1A blk: 21; ClpP mod: -0.6%; gsp ag: 16%; gsp antag: -22%; Menin-MLL FL inh: -0.8

How did COc1ccccc1CCNC(=O)c1cc(C2CC2)nc2c1cnn2C(C)C do in these assays?
TRPV1 PAM: 11; CtBP-E1A blk: 2; gsp ag: -8%[15.4 µM]; gsp antag: -20%

What do the screens show for `CCCC1NC(=O)c2cccnc2-n2c1nc1ccc(OC)cc1c2=O` (centres undefined)?
CtBP-E1A blk: 4; ClpP mod: -0.5%; gsp ag: 17%

How did Cc1ccc(CN2CCN(Cc3ccccc3-c3ccco3)CC2CCO)o1 (centres undefined) do in these assays?
TRPV1 PAM: -3; Sfp PPTase inh: 3%; CtBP-E1A blk: -19; ClpP mod: 0.5%; gsp ag: 11%; gsp antag: 5%; Menin-MLL FL inh: -1.5

What do the screens show for `Cc1ccc(-c2nnn(CC(=O)N(c3ccccc3)C(C(=O)NC(C)(C)C)c3cccs3)n2)o1` (centres undefined)?
TRPV1 PAM: 1; Sfp PPTase inh: -1%; CtBP-E1A blk: 1; ClpP mod: -0.6%; gsp ag: -28%; gsp antag: 12%; Menin-MLL FL inh: 1.8

How did CCOC(=O)C1=C(c2cccc(F)c2)NC(=S)NC1C (centres undefined) do in these assays?
TRPV1 PAM: 5; Sfp PPTase inh: 8%; CtBP-E1A blk: 3; ClpP mod: -0.9%; gsp ag: 7%; gsp antag: 14%; Menin-MLL FL inh: -4.5

How did CN1C(=O)/C(=C\c2ccccc2F)Sc2ccc(C(=O)NC3CCN(Cc4ccccc4)CC3)cc21 do in these assays?
TRPV1 PAM: 6; Sfp PPTase inh: -28%; CtBP-E1A blk: -4; ClpP mod: -7.1%; gsp ag: -20%; gsp antag: -13%; Menin-MLL FL inh: 5.3

What do the screens show for `Cc1ccc(/C=N/NC(=O)c2nnn(-c3nonc3N)c2C(C)C)o1`?
TRPV1 PAM: -25; Sfp PPTase inh: -9%; ClpP mod: -1.8%; gsp ag: 10%; gsp antag: -11%

How did CC(CCO)Nc1nc2c(c(=O)n(C)c(=O)n2C)n1Cc1cccc(Br)c1 (centres undefined) do in these assays?
TRPV1 PAM: -8; Sfp PPTase inh: -6%; CtBP-E1A blk: 5; ClpP mod: -4.3%; gsp ag: 2%; gsp antag: -12%; Menin-MLL FL inh: -30

How did CCCC(=O)Nc1ccccc1NC(=O)c1ccc2c(c1)OCO2 do in these assays?
TRPV1 PAM: -7; Sfp PPTase inh: 3%; CtBP-E1A blk: 2; ClpP mod: 0.7%; gsp ag: 21%; gsp antag: -2%; Menin-MLL FL inh: -1.2

How did CCCOc1ccccc1N1C(=O)CC(N2CCOCC2)C1=O (centres undefined) do in these assays?
TRPV1 PAM: -4; Sfp PPTase inh: 4%; CtBP-E1A blk: 0; ClpP mod: 3.0%; gsp ag: 7%; gsp antag: 7%; Menin-MLL FL inh: -2.2

Results for COc1ccc(CCNC(=O)COC(=O)Cc2ccccc2F)cc1 ?
CtBP-E1A blk: 1; gsp ag: 3%; gsp antag: 2%

How did CCOc1ccc(CCNC(=O)CCS(=O)(=O)c2ccc(Cl)cc2)cc1OCC do in these assays?
TRPV1 PAM: 21; Sfp PPTase inh: 6%; CtBP-E1A blk: -2; ClpP mod: -2.8%; gsp ag: -9%; gsp antag: 5%

Results for CC1(C)C(=O)N(OCc2ccccc2)C(C)(C)C(=O)N1OCc1ccccc1 ?
TRPV1 PAM: -10; Sfp PPTase inh: 8%; CtBP-E1A blk: 9; ClpP mod: -6.8%; gsp ag: -55%[inhibitor]; gsp antag: -13%; Menin-MLL FL inh: 5.5

Results for COCC(=O)Nc1ccc(S(=O)(=O)Nc2ccccn2)cc1 ?
TRPV1 PAM: 5; Sfp PPTase inh: 15%; CtBP-E1A blk: 0; gsp ag: 11%[15.4 µM]; gsp antag: 3%; Menin-MLL FL inh: -4.3

How did COc1ccccc1Oc1cn[nH]c1-c1ccc(OCC(=O)NN)cc1O do in these assays?
TRPV1 PAM: 1; Sfp PPTase inh: 0%; CtBP-E1A blk: 1; ClpP mod: -3.4%; gsp ag: -3%; gsp antag: 5%; Menin-MLL FL inh: 1.5

Results for COc1ccc(-c2sc3ccccc3c2C#CCO)cc1 ?
TRPV1 PAM: -10; Sfp PPTase inh: -15%; CtBP-E1A blk: 10; ClpP mod: 4.3%; gsp ag: inconclusive; gsp antag: -5%; Menin-MLL FL inh: 0.9

Results for O=C(CSc1nnc(C2CC2)n1Cc1ccccc1)N1CCN(S(=O)(=O)c2ccccc2)CC1 ?
TRPV1 PAM: -4; Sfp PPTase inh: -5%; CtBP-E1A blk: 5; ClpP mod: 1.1%; gsp ag: 7%; gsp antag: -1%; Menin-MLL FL inh: 2.7

What do the screens show for `Cc1cc(C(F)(F)F)c(C#N)c(=O)[nH]1`?
TRPV1 PAM: 3; Sfp PPTase inh: 17%; CtBP-E1A blk: -9; ClpP mod: inconclusive; gsp ag: 16%; gsp antag: 1%[15.4 µM]; Menin-MLL FL inh: 2.8

What do the screens show for `C1CN(c2nc3nonc3nc2N2CCSCC2)CCO1`?
TRPV1 PAM: -1; Sfp PPTase inh: 13%; CtBP-E1A blk: -2; ClpP mod: -3.2%; gsp ag: -31%; gsp antag: -1%; Menin-MLL FL inh: 0.8

What do the screens show for `COc1ccc2c(c1)C(NC(C)=O)C(=O)N2CCc1ccccc1` (centres undefined)?
TRPV1 PAM: 9; Sfp PPTase inh: 1%; CtBP-E1A blk: -10; gsp ag: -3%[15.4 µM]; gsp antag: 16%; Menin-MLL FL inh: 1.3

Results for COC(=O)c1c(NC(=S)Nc2ccc(CC(=O)O)cc2)sc(C)c1C ?
TRPV1 PAM: 0; Sfp PPTase inh: -36%; CtBP-E1A blk: 2; ClpP mod: -1.3%; gsp ag: inconclusive; gsp antag: 0%; Menin-MLL FL inh: 8.3

Results for Cc1c(Cl)cccc1N1C(=O)C(N2C(=O)c3cccc([N+](=O)[O-])c3C2=O)C1c1cccs1 (centres undefined) ?
TRPV1 PAM: -10; Sfp PPTase inh: 12%; CtBP-E1A blk: 8; ClpP mod: -0.4%; gsp ag: -2%; gsp antag: -21%; Menin-MLL FL inh: 1.8

Results for CCCCOC(=O)Nc1ccccc1C(=O)OC ?
TRPV1 PAM: 1; Sfp PPTase inh: 9%; CtBP-E1A blk: 18; ClpP mod: inconclusive; gsp ag: 1%; gsp antag: 3%; Menin-MLL FL inh: 4.0

Results for COc1ccc(CNC(C)(C)C)cc1Cl ?
TRPV1 PAM: 13; Sfp PPTase inh: 16%; CtBP-E1A blk: 9; ClpP mod: -0.9%; gsp ag: 9%; gsp antag: 0%; Menin-MLL FL inh: -1.1

What do the screens show for `COc1ccc(C(=O)OCC(=O)NC2CCCC2)cc1OC`?
TRPV1 PAM: 3; Sfp PPTase inh: 4%; CtBP-E1A blk: 5; gsp ag: -7%[15.4 µM]; gsp antag: 8%; Menin-MLL FL inh: 4.9

How did O/N=C(\c1ccc(Cl)cc1Cl)c1ncc(C(F)(F)F)cc1Cl do in these assays?
TRPV1 PAM: -12; Sfp PPTase inh: 22%; CtBP-E1A blk: 5; ClpP mod: -1.0%; gsp ag: 27%; gsp antag: -14%; Menin-MLL FL inh: 5.1

What do the screens show for `CC1(C)OC(=O)C2(Cc3ccccc3N3CCCCC32)C(=O)O1` (centres undefined)?
TRPV1 PAM: 0; Sfp PPTase inh: 4%; CtBP-E1A blk: -4; ClpP mod: 3.4%; gsp ag: -32%[inhibitor]; gsp antag: -10%; Menin-MLL FL inh: 3.4

What do the screens show for `Nc1ncnc2c1ncn2[C@@H]1O[C@H](COS(=O)(=O)O)[C@@H](O)[C@H]1O`?
TRPV1 PAM: 16; CtBP-E1A blk: 4; ClpP mod: 1.8%; gsp antag: 37%[activator]

Results for COc1ccc(CN(C)CCCn2cnc3c(OCc4ccccc4)ncnc32)cc1OC ?
CtBP-E1A blk: -7; ClpP mod: -2.0%; gsp antag: -5%

How did CNC(=O)C1CCCN1S(=O)(=O)c1ccc(OC)cc1 (centres undefined) do in these assays?
TRPV1 PAM: 3; Sfp PPTase inh: 9%; CtBP-E1A blk: -2; ClpP mod: 0.6%; gsp ag: -8%; gsp antag: -8%; Menin-MLL FL inh: 14

Results for CCOC(=O)N1CCN(S(=O)(=O)c2cc([N+](=O)[O-])ccc2C)CC1 ?
TRPV1 PAM: -13; Sfp PPTase inh: 4%; CtBP-E1A blk: 9; ClpP mod: 2.0%; gsp ag: -78%[inhibitor]; gsp antag: -14%; Menin-MLL FL inh: -7.0

Results for COc1ccc(CNC(=O)C(OC(=O)c2ccco2)c2ccc(OC)cc2)cc1 (centres undefined) ?
TRPV1 PAM: 11; Sfp PPTase inh: 5%; CtBP-E1A blk: -6; ClpP mod: -1.0%; gsp ag: 24%; gsp antag: 2%; Menin-MLL FL inh: 2.2

How did CC(Sc1nnc(-c2ccco2)n1C)C(=O)N(C)C1CCCCC1 (centres undefined) do in these assays?
TRPV1 PAM: 0; CtBP-E1A blk: 3; ClpP mod: 1.8%; gsp ag: -7%; gsp antag: 1%

This is a random part of the collection. Share with any hit: about 5.3%.
